INS promoter inh = TRM-6 insulin promoter activity inhibition; TRM-6 cells (human fetal islet line), insulin promoter-eGFP reporter, imaging; reporter expression induced with tamoxifen; inhibition, % at 2 µM; 0.9% of 130,000 active; AID 1273;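 active = inhibition above the mean plus 3 SD, with well images judged a real hit on visual review, cut at about 60% in these data, passing the limit was not always enough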
PKD1 inh = inhibitors of human PKD1 kinase; Q15139; PKD1 kinase fluorescence polarization assay; inhibition, %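 (about 10 µM by stock and volumes)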; 0.056% of 200,000 active; AID 797;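 active = inhibition of 50% or more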;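 note: controls were vehicle for no effect and a reference inhibitor for full effect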
Target sequence (Q15139 whole entry, looked up): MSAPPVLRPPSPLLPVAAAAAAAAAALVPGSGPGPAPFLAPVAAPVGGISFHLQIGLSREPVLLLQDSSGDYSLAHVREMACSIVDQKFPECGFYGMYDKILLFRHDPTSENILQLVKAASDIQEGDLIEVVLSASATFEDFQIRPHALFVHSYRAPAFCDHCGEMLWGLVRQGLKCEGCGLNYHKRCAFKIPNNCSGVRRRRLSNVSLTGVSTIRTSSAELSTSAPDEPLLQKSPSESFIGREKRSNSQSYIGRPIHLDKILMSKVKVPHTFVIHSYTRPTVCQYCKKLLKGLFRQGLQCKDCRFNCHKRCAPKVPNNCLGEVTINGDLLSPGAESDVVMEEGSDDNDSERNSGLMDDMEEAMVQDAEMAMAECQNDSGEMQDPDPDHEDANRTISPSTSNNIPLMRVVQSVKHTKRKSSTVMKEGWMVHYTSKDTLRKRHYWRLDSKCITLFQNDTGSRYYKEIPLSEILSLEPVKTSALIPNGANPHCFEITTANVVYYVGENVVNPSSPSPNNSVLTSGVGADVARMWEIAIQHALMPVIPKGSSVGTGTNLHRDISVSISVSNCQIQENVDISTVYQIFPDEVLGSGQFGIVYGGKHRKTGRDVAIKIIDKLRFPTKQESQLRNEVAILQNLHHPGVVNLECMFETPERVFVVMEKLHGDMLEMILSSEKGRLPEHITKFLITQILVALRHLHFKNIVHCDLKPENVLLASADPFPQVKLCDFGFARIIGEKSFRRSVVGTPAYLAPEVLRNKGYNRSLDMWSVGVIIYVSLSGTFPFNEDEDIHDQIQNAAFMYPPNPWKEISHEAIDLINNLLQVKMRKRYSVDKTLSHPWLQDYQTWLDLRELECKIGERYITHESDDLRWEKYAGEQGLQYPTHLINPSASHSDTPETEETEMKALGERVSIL
GALR2 agonist = agonists of human galanin receptor 2 (GALR2); O43603; GALR2-expressing cells, agonist activation read-out; activation, %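 (tested at 5 µM)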; 0.48% of 140,000 active; AID 803;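 active = above mean plus 3 SD of all compounds, about 5% in these data, not always enough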;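 note: 0% = vehicle buffer wells and 100% = reference agonist at full effect; tested in CHO reporter cells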
RGS16-Gao HTS = modulates binding between human RGS16 and Galphao; O15492+P09471; bead-based flow cytometry RGS16-Galphao binding, fluorescence; actives lie on both sides; binding response (% of control), % at 10 µM; 0.38% of 220,000 active; AID 1441;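 active = below 25% or above 175%, edge rows of some plates excepted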;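 note: Galphao activated by GDP with aluminum fluoride before binding; 100% = wells without compound and 0% = beads without RGS; some results beyond the cut were filed as inactive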
HSV augment = HSV replication enhancement. HSV replication augmentation in cells, fold increase. maximum fold increase. 0.005% of 220,000 active;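 active = peak rise of 1.5-fold or more in the series; tested in PC3 cells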;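 note: first round at 10 µM; read as green reporter fluorescence; hits show the peak of a series up to 25 µM; 1 = signal of infected wells without compound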
INS promoter inh cell count = further read-out of INS promoter inh, marked with its call; normalized cell count, %; measured here: cell count, toxicity; reference of the scale not given here;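 cells exposed to compound for 48 h; stained nuclei by imaging scaled within each plate; lower means fewer cells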
HSV augment primary fold = second read-out of HSV augment, no call of its own (marks repeat the call); fold increase; compound at 10 µM; measured here: primary screen fold increase 10 uM; tested in PC3 cells;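 GFP signal in the first replicate; 1 = infected wells without compound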
Starred values were filed as active, the others as inactive; i = inactive; · = no result given.

The first seven entries, ahead of the listing:
SMILES	INS promoter inh	INS promoter inh cell count	PKD1 inh	GALR2 agonist	RGS16-Gao HTS	HSV augment	HSV augment primary fold
Cc1nc2ccccn2c1C(=O)N/N=C/c1cc(C)n(-c2ccc(Cl)cc2)c1C	-41.7	144.5	1.4	-1.5	100.0	i	0.99
CC1CCN(c2ccccc2NC(=O)c2ccc(C#N)cc2F)CC1	·	·	-7.9	·	107.9	i	0.95
Cc1ccc(NC(=O)CSCC(=O)O)c(C)c1	·	·	-6.8	-1.2	101.1	i	0.99
COCCN1C(=O)c2ccccc2C(C(=O)N2CCN(c3ccccn3)CC2)C1c1ccc(F)cc1 (centres undefined)	5.0	58.4	-2.8	2.2	87.0	i	0.97
CCn1c(SCC(=O)c2ccccc2)nc2c(c1=O)SC(C)C2 (centres undefined)	-3.7	115.7	5.2	1.3	100.6	i	0.94
O=C(Cn1nnc(-c2ccc(Cl)cc2)n1)NC1CCN(Cc2ccccc2)CC1	32.3	121.2	-1.2	-1.9	138.7	i	0.917
O=C(CSc1nnc(SCc2ccccc2Cl)s1)N/N=C/c1c[nH]c2ccccc12	-45.2	122.0	8.3	-0.7	102.9	i	1.04

The whole of this part, previewed entries included:
SMILES	INS promoter inh	INS promoter inh cell count	PKD1 inh	GALR2 agonist	RGS16-Gao HTS	HSV augment	HSV augment primary fold
Cc1nc2ccccn2c1C(=O)N/N=C/c1cc(C)n(-c2ccc(Cl)cc2)c1C	-41.7	144.5	1.4	-1.5	100.0	i	0.99
CC1CCN(c2ccccc2NC(=O)c2ccc(C#N)cc2F)CC1	·	·	-7.9	·	107.9	i	0.95
Cc1ccc(NC(=O)CSCC(=O)O)c(C)c1	·	·	-6.8	-1.2	101.1	i	0.99
COCCN1C(=O)c2ccccc2C(C(=O)N2CCN(c3ccccn3)CC2)C1c1ccc(F)cc1 (centres undefined)	5.0	58.4	-2.8	2.2	87.0	i	0.97
CCn1c(SCC(=O)c2ccccc2)nc2c(c1=O)SC(C)C2 (centres undefined)	-3.7	115.7	5.2	1.3	100.6	i	0.94
O=C(Cn1nnc(-c2ccc(Cl)cc2)n1)NC1CCN(Cc2ccccc2)CC1	32.3	121.2	-1.2	-1.9	138.7	i	0.917
O=C(CSc1nnc(SCc2ccccc2Cl)s1)N/N=C/c1c[nH]c2ccccc12	-45.2	122.0	8.3	-0.7	102.9	i	1.04
O=S(=O)(Nc1cccc(-c2nnco2)c1)c1ccc(F)cc1F	·	·	·	·	106.6	i	0.99
COCCCNC(=O)/C(C#N)=c1\s/c(=C\c2ccccc2OC(F)F)c(=O)n1CCCOC	·	·	-4.5	-1.6	92.7	i	1.66
COC(=O)C1NN=C(C(=O)c2ccc(Br)cc2)C1c1cccc(Br)c1 (centres undefined)	33.3	119.6	-5.8	-0.2	109.4	i	0.99
OCCCc1nc2ccccc2[nH]1	·	·	-0.6	·	101.1	i	1.04
CCOC(=O)c1cnc2c(C)cccc2c1Nc1cccc(C(=O)O)c1	·	·	·	·	85.0	i	0.83
COCCOC(=O)C1=C(N)OC2=C(C(=O)CCC2)C1c1cccnc1 (centres undefined)	15.6	110.2	-9.4	-0.6	105.9	i	0.89
COc1cccc2cc(C(=O)N(C)C3CCN(C)CC3)c(=O)oc12	0.0	82.6	-10.8	-2.5	68.1	i	0.95
O=C(CSCC(=O)N1CCN(c2ccccc2)CC1)Nc1nc(-c2ccc(Cl)s2)cs1	·	·	17.0	-4.0	121.6	i	1.13
Cc1ccc(S(=O)(=O)NCc2n[nH]c(=S)n2C)cc1	-6.7	139.9	1.8	-1.6	102.8	i	0.9
COc1ccc(/C=N/n2c(SC)nnc(C(C)(C)C)c2=O)cc1	-8.7	110.3	-10.5	-3.6	77.0	i	0.95
O=C(O)CC(NC(=O)C(F)(F)F)c1ccc2c(c1)OCO2 (centres undefined)	10.5	83.6	1.9	·	107.3	i	0.97
NS(=O)(=O)c1ccc(N/N=C/c2ccccc2Br)cc1	·	·	4.0	·	107.1	i	0.8
CC(=O)c1ccc(NC(=O)C(Cc2ccccc2)n2cccc2)cc1 (centres undefined)	·	·	·	·	90.1	i	0.91
Cc1ccc(N=Cc2cc(C)n(C3CCCC3)c2C)cc1	62.2	110.2	-16.1	-1.9	97.1	i	0.98
CC(C)(C)NC(=O)CSc1nc(N)c(-c2ccccc2)c(=O)[nH]1	·	·	-8.9	·	109.0	i	0.87
O=C(Nc1ccc(F)cc1)c1cc(S(=O)(=O)N2CCCCC2)cs1	·	·	2.7	-1.0	106.3	i	1.08
O=C(CN1C(=O)c2ccccc2C1=O)NCc1ccccn1	·	·	5.9	-1.2	101.3	·	·
Cc1c(N2C(=O)/C(=C/c3ccccc3)SC2=S)c(=O)n(-c2ccccc2)n1C	36.7	78.9	5.5	-0.3	103.6	i	0.953
CCOC(=O)Cc1csc(NC(=O)CN(C)S(=O)(=O)c2ccc3c(c2)CCC(=O)N3)n1	-60.0	110.0	-6.8	-1.2	·	i	1
Cc1cccc(NC(=O)CN2C(=O)CNC2=O)c1	53.6	119.8	-7.7	-0.8	106.0	·	·
COc1ccccc1CN1C(=O)c2ccncc2C1=O	28.6	76.8	-0.3	-1.6	90.9	i	0.92
Cc1cc(C(=O)OCC(=O)N2CC(C)CC(C)C2)c(C)o1 (centres undefined)	·	·	-13.4	0.5	109.3	i	0.923
O=C(/C=C/c1ccc(Cl)c([N+](=O)[O-])c1)c1ccc(O)cc1	·	·	·	·	96.2	i	0.59
O=C(CSc1cccc[n+]1[O-])Nc1cccc(S(=O)(=O)NC2=NCCCCC2)c1	·	·	-2.1	·	92.1	i	0.84
COc1cccc(NC(=O)c2ccncc2)c1	41.9	135.5	3.7	-2.2	93.3	i	0.987
COc1cc(-c2cn(S(=O)(=O)c3cccc4nsnc34)nc2N)cc(OC)c1OC	33.3	106.6	-0.1	-1.4	104.6	i	0.85
O=C(NCCc1ccccc1)c1ccc(Br)o1	9.7	120.4	-0.2	-1.4	95.1	i	0.94
COc1ccc(Cc2[nH]n3c(=O)c(Cl)c(C)nc3c2-c2ccccc2)cc1	11.8	99.8	5.2	·	103.0	i	0.93
N/C(Cc1ccc(Cl)cc1)=N\OC(=O)c1ccc2ccccc2c1	-7.9	149.7	-0.9	-3.7	100.2	i	0.95
O=C(O)/C=C/c1cccc(OCc2ccccc2)c1	·	·	-4.3	·	101.7	i	0.97
CCOC(=O)c1c(NC(=O)C2CC=CCC2C(=O)O)sc(C)c1CC (centres undefined)	5.9	110.2	-3.0	·	97.1	i	1.21
Nc1nc(=S)c2ncn(C3CCCC3)c2[nH]1	·	·	·	·	99.9	i	1.15
COc1ccc(N=Cc2ccc(-c3ccccc3)o2)cc1	·	·	-4.5	·	101.6	i	1.03
COc1ccc(/C=C2\SC(=O)N(CCNC(=O)C3CC4C=CC3C4)C2=O)cc1 (centres undefined)	-33.3	94.4	5.5	·	98.9	i	0.95
Cc1c(C(=O)C(C)C)n(C)c2ccccc12	-32.4	189.2	-6.6	-3.9	102.5	i	0.92
O=C(NCc1ccc2c(c1)OCO2)c1c(F)c(F)c(F)c(F)c1F	-13.3	78.6	-4.8	-1.1	89.5	i	0.86
N#Cc1c(-c2cccs2)nc(SCc2ccc(Cl)cc2)[nH]c1=O	40.0	86.0	-2.7	·	106.2	i	1.09
Cc1cccc(S(=O)(=O)Nc2ccc(-c3cn4ccccc4n3)cc2)c1	·	·	3.7	0.3	103.7	i	0.92
CN(Cc1ccccc1)C(=O)c1nn2cccnc2c1Cl	·	·	2.2	·	105.2	i	1.04
Cc1ccc(OCc2nc(-c3ccccc3)no2)c(C)c1	-5.6	170.3	-0.5	-0.8	108.6	i	1.03
COc1ccc(Nc2oc(COc3ccccc3F)nc2C#N)cc1	·	·	-4.1	-0.9	101.4	i	1.03
Oc1ccc(-c2nc(=S)[nH][nH]2)cc1	19.1	117.6	0.2	-0.8	96.4	i	0.86
COc1ccc(/C=N/NC(=O)c2cccc(Br)c2)cc1Cn1cc(Cl)cn1	28.6	101.4	-11.3	-1.7	100.4	i	0.5
CCCCCCOc1ccc(C(CC(N)=O)C(=O)O)cc1 (centres undefined)	35.7	79.0	-1.0	·	102.0	i	0.94
CCOC(=O)c1cc2occc2n1CC(=O)N1CCN(C(=O)c2ccco2)CC1	·	·	-11.8	-3.7	99.5	i	0.84
CCC1OC23CCCCC2C(C#N)(C(=N)O3)C1(C#N)C#N (centres undefined)	59.0	94.3	-11.5	1.3	102.5	i	1.24
Cn1c(SCC(=O)N2CCOCC2)nnc1-c1ccc(Cl)cc1Cl	·	·	10.9	-3.2	102.8	i	1.03
O=C(CCc1ccccc1)N1CCN(c2ccc(F)cc2)CC1	·	·	-2.9	·	101.5	i	1.01
O=C(COc1ccc2ccccc2c1)NNC(=O)c1cnccn1	-6.7	120.0	4.0	-1.2	97.9	i	0.85
COc1ccccc1CC(NC(C)=O)C(=O)NC1CCN(C(=O)c2ccc([N+](=O)[O-])cc2)CC1 (centres undefined)	57.1	79.9	-2.6	-1.6	103.9	i	0.99
CCC(CC)C(=O)c1c[nH]c(C(=O)NCc2cccnc2)c1	45.5	104.0	0.7	·	103.1	i	1.04
O=C(c1cccc([N+](=O)[O-])c1)N1CCN(c2ccccn2)CC1	0.0	120.6	-9.3	-1.4	85.8	i	0.86
O=C(O)Cc1ccc(N=Nc2c(O)c(C(=O)O)cc3ccccc23)cc1	·	·	·	·	98.3	i	1.16
(cont.)
SMILES	INS promoter inh	INS promoter inh cell count	PKD1 inh	GALR2 agonist	RGS16-Gao HTS	HSV augment	HSV augment primary fold
O=C1Nc2ccccc2C1Cc1ccccn1 (centres undefined)	·	·	·	·	103.5	i	1.04
O=S(=O)(NCc1ccccc1)c1ccc(Cl)c(S(=O)(=O)NCc2ccccc2)c1	-29.2	100.4	3.5	-1.5	103.0	i	0.57
COC(=O)/C=c1/sc2nc3ccccc3n2c1=O	-18.2	49.4	-15.0	4.6	73.0	i	0.95
Cc1cc(=O)oc2cc(OCC(=O)N/N=C/c3ccccc3[N+](=O)[O-])ccc12	·	·	5.0	-1.8	98.3	i	0.92
O=C(Nc1nnc(-c2ccc(Cl)cc2)o1)c1nc2ccccc2s1	·	·	-6.6	0.2	102.5	i	0.7
CCOC(=O)c1c(N2C(=O)C=CC2=O)sc(C)c1C	16.7	92.9	-1.1	2.2	73.0	i	0.54
O=C(c1cc2nc(-c3ccco3)cc(C(F)(F)F)n2n1)N1CCc2ccccc2C1	·	·	6.4	1.6	97.1	·	·
CCC(Sc1nc2ccccc2s1)C(=O)Nc1nnc(C)s1 (centres undefined)	·	·	-2.0	-1.6	97.8	i	0.87
CCOC(=O)CCSCC(=O)Nc1cc(C)on1	-11.1	107.5	3.7	-0.2	102.6	i	0.93
O=C(CCc1[nH]c2ccccc2c1Sc1ccccc1)NCCO	-3.2	99.5	-3.3	-0.1	103.1	i	0.91
O=c1c2ccccc2nc(SCc2ccccc2F)n1C1CCCC1	·	·	7.3	0.1	105.9	i	1.14
CCOC(=O)c1nn(-c2ccc(C)cc2)c(=O)c2c(N)scc12	25.0	144.3	-0.2	-0.4	77.5	i	0.84
CCCCCNC(=O)C(C#N)c1nc2ccccc2nc1N1CC(C)OC(C)C1 (centres undefined)	52.4	92.7	-8.1	-2.9	·	·	·
COc1ccc(C2N=C(N)N=C(N)N2c2ccc(C)cc2)cc1 (centres undefined)	4.3	97.5	-3.5	-1.6	103.7	i	0.8
Cc1ccc(CN2CCC(N3CCC(C(=O)NCC4CCCO4)CC3)CC2)o1 (centres undefined)	·	·	-5.7	·	100.8	i	1
O=C(O)CC(NS(=O)(=O)c1ccc(Br)cc1)c1ccco1 (centres undefined)	·	·	3.0	-0.7	106.0	i	0.78
O=C(O)c1cccc(N/N=C/c2ccc(F)c(F)c2)c1	·	·	0.3	·	103.6	i	1
CC(C)=NNC(=O)CN1C(=O)NC2NC(=O)NC21 (centres undefined)	-3.2	90.5	-5.3	0.6	99.5	i	0.87
Cc1cc(C(F)(F)F)n2nc(C)c(-c3ccc(Cl)cc3)c2n1	-6.7	92.7	2.4	0.9	103.0	i	0.85
Cc1ccc(C(=O)NC(=S)Nc2ccc(CN3CCCCC3)cc2)c(C)c1	·	·	-0.9	·	104.0	i	0.66
COC(=O)c1c(S(=O)(=O)NCc2ccccc2)sc(C(=O)O)c1C	-38.7	110.6	-2.4	-0.7	105.0	i	1.04
CCOC(=O)c1cc(-c2ccc(OC)cc2F)nc2c1c(C)nn2CCC#N	13.9	71.2	-8.0	-0.8	98.8	i	0.84
COc1ccc(OC)c(N(CC(=O)NCc2cccnc2)S(C)(=O)=O)c1	13.3	150.0	-6.6	-3.9	83.8	i	0.95

Assay outcomes from PubChem.
